AmpC nodet inh: AmpC beta-lactamase inhibition, detergent-free assay; actives 1.8% (n = 71,000); P00811; Potency, µM (top dose mostly 28.7 µM), without a hit: top-dose activity change, negative = inhibition; AID 585; AmpC nitrocefin hydrolysis, absorbance 480 nm, no detergent; potencies from a single point are estimates; active = falling curve, for most hits resting on a single point; inconclusive = weak or doubtful change; inactive = flat or rising curve; note: % of control where 0% means no effect; about half of the hits show no inhibition at the top dose; a quarter of the inactives give rising signals
Target sequence (P00811 whole entry, looked up): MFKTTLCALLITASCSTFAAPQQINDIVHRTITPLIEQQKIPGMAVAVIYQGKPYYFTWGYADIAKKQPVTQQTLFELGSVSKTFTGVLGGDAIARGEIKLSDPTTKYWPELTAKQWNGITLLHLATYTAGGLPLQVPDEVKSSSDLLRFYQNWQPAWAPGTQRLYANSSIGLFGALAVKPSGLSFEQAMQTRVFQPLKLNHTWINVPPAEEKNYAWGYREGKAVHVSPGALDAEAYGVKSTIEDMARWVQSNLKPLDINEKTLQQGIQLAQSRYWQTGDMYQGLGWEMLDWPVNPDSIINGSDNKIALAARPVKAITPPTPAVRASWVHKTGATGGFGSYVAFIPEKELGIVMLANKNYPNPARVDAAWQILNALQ
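AmpC, 20 mM phosphate pH 7.0; 15 min cpd preinc, RT; start with nitrocefin (800 uM stock); A480 kinetic read, 20 s intervals, 4 min. No-enzyme wells = negative control.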
* = called active by the depositor; & = joins results of further samples; [ ] = dose if it differs, or a comment. Potency is the fitted concentration of half-maximal effect. The list is partial, so the mix of outcomes need not match the whole.

SMILES	AmpC nodet inh
O=C(Nc1ccccc1NC(=O)c1c(F)c(F)c(F)c(F)c1F)c1c(F)c(F)c(F)c(F)c1F	-12%
C=COC(C)=O	-6%
O=C(CSC1=NCCS1)NCc1ccco1	14%
Cc1ccc2c(c1)N(CC(=O)Nc1ccc3c(c1)OCCO3)C(=O)CO2	-11%
O=C(CN1CCCC1=O)N1CCOCC1	-2%
COc1ccc(C(CNC(=O)CN2C(=O)NC3(CC(C)CC(C)(C)C3)C2=O)N2CCOCC2)cc1 (stereo unspecified)	129%
O=C(c1cc2n(n1)C(C(F)(F)F)CC(c1ccc(Cl)cc1)N2)N1CCCC1 (stereo unspecified)	55%
O=C(NCCC1=CCCCC1)C1CCN(S(=O)(=O)c2cccc3nsnc23)CC1	-1%
CNC(=O)CN(C1CCCCC1)S(=O)(=O)c1ccc(F)cc1	13%
COc1ccccc1CN1CCCC2(CCN(C(=O)Oc3ccccc3)CC2)C1	28%
O=C(CSc1nc2ccccc2[nH]1)Nc1cc(C(F)(F)F)ccc1N1CCOCC1	5%
CCCCOP(=O)(c1ccc(N(C)C)cc1)C(O)c1ccccc1F (stereo unspecified)	71%
Cc1cc(C)nc(SCc2nnc(SCc3ccccc3Cl)o2)n1	94%
O=CN1CC(=O)N(c2ccccc2)c2c([nH]c3ccccc23)C1	41%
O=C(Nc1ccc(-c2nc3ccccc3o2)cc1)c1ccc2c(c1)OCO2	-4%
C[C@H](NC[C@H](O)CP(=O)(O)CC1CCCCC1)c1ccc(Cl)c(Cl)c1	89%
COc1ccc(-c2nc3ccccc3s2)cc1O	34%
CCOc1ccc(-c2noc(CCC(=O)NC)n2)cc1OCC	3%
CCOC(=O)C1=C(C)N(C2CCCCC2)C(=O)C1	25%
CCOC(=O)c1sc(NC(=O)CSc2nnc(-c3ccco3)n2CC)c(C(=O)OCC)c1C	86%

Copied from the list.
Entry for O=C(CN1CCCC1=O)N1CCOCC1 in AmpC nodet inh: -2%
Entry for O=C(Nc1ccccc1NC(=O)c1c(F)c(F)c(F)c(F)c1F)c1c(F)c(F)c(F)c(F)c1F in AmpC nodet inh: -12%
Entry for O=C(c1cc2n(n1)C(C(F)(F)F)CC(c1ccc(Cl)cc1)N2)N1CCCC1 (stereo unspecified) in AmpC nodet inh: 55%
Entry for COc1ccccc1CN1CCCC2(CCN(C(=O)Oc3ccccc3)CC2)C1 in AmpC nodet inh: 28%
Entry for O=C(CSc1nc2ccccc2[nH]1)Nc1cc(C(F)(F)F)ccc1N1CCOCC1 in AmpC nodet inh: 5%
Entry for CNC(=O)CN(C1CCCCC1)S(=O)(=O)c1ccc(F)cc1 in AmpC nodet inh: 13%
Entry for CCCCOP(=O)(c1ccc(N(C)C)cc1)C(O)c1ccccc1F (stereo unspecified) in AmpC nodet inh: 71%

Back to the main list, repeating the 4 entries before the break.
SMILES	AmpC nodet inh
COc1ccc(-c2nc3ccccc3s2)cc1O	34%
CCOc1ccc(-c2noc(CCC(=O)NC)n2)cc1OCC	3%
CCOC(=O)C1=C(C)N(C2CCCCC2)C(=O)C1	25%
CCOC(=O)c1sc(NC(=O)CSc2nnc(-c3ccco3)n2CC)c(C(=O)OCC)c1C	86%
CCOc1cc(C)nc(Oc2ccc(=O)[nH]n2)n1	-2%
O=C(c1ccc2c(c1)OCCO2)N(c1ccccn1)C1CCCCC1	29%
Nc1cc(S(=O)(=O)O)ccc1O	-19%
CCOC(=O)c1ccc(NC(=O)c2cc3ccccc3o2)cc1	8%
O=c1cnc2cnc(Nc3ccccc3)nc2n1C[C@H]1CCCO1	23%
COc1ccc(-c2noc(C3CCCN(S(=O)(=O)c4cccc(Cl)c4C)C3)n2)cc1OC (stereo unspecified)	80%
COc1ccc(-c2nnc(SCC(=O)Nc3ccccc3OC)o2)cc1	58%
CC(C)CNC(=O)C1CCN(c2ccc(S(=O)(=O)N3CCOCC3)cc2)CC1	17%
CC(=O)N1CCN(c2ccc(NC(=O)c3ccc4c(c3)OCO4)cc2)CC1	10%
CN(C)c1ncnc2ccc(-c3ccc4c(c3)OCO4)cc12	118%
CCOC(=O)C1=C(C)N(C)C(=O)NC1c1cc2c(cc1Br)OCO2 (stereo unspecified)	19%
CCc1c(C)c2ccc(OCC(=O)OC)cc2oc1=O	7%
CN1CCc2c(sc3nc(SCC(=O)N4CCOCC4)nc(N)c23)C1	25%
CN(C)C(=O)CSc1nnc(-c2cccnc2)n1-c1ccccc1	3%
CC(=O)Nc1nn(C)c2nc3cc(C)ccc3cc12	-4%
O=C1CCCN1CC(CN1CCOCC1)Sc1nc2ccccc2c(=O)n1-c1ccccc1 (stereo unspecified)	90%
N#Cc1ccc(NC(=O)c2cc3cc4c5c(c3oc2=N)CCCN5CCC4)cc1	-8%
O=C(CSc1nnc(-c2ccccc2Br)o1)Nc1cccc2ccccc12	-15%
Fc1ccc(N2CCN(c3nc(-c4ccco4)cc(C(F)(F)F)n3)CC2)cc1	-7%
CCOC(=O)c1sc(N)c(C#N)c1CSc1nc2ccc(OCC)cc2[nH]1	32%
CC(=O)NNC(=O)N1Cc2ccccc2Oc2ccc(Cl)cc21	67%&5%
O=C(CN1CCCN(S(=O)(=O)c2ccc(F)cc2)CC1)Nc1ccccc1Br	49%
Cc1ccc(NS(=O)(=O)c2ccc(CCC(=O)N3CCOCC3)cc2)cc1	28%
CCN(CC)CCn1cnc2c([nH]c3cccc(OC)c32)c1=O	-4%
Cc1cc(C)n(-c2nncc(-c3ccccc3)n2)n1	44%
O=S(=O)(c1cccc2cccnc12)n1cnc2ccccc21	15%
Cc1ccc(S(=O)(=O)N2CCC(C(=O)NCCN3CCCCCC3)CC2)cc1	8%
Cc1cn(CC2COC(C)(C)O2)c(=O)[nH]c1=O (stereo unspecified)	-17%
N#CCCN(CCC#N)C(=O)c1ccc(Cl)cc1	-1%
COc1cc(NC(=O)CSCc2cnn(-c3ccccc3)c2-n2cccc2)cc(OC)c1	-6%
CCCN1C(=O)c2cc(C(=O)NCc3cccs3)ccc2C1O (stereo unspecified)	4µM*[single pt active]
O=C(Nc1cccnc1)c1cnn2cccnc12	-6%
CCCn1c(-c2ccc(F)cc2)nc2c(NC(C)CN(C)C)nc(C)nc21 (stereo unspecified)	30%
CC(CCc1ccco1)NC(=O)Cn1ncc2c(=O)oc3ccccc3c21 (stereo unspecified)	4µM*[single pt active]
CC(C)=C1C2CC2C2C(C(=O)O)C12 (stereo unspecified)	-5%
COC(=O)c1nnc(-c2ccccc2)c(-c2ccccc2)n1	2%
CC(=NCc1ccc2c(c1)OCO2)c1c(O)n(C)c(=O)n(C)c1=O	20%
CN1CCN(c2nccc3c2ncn3C)CC1	-9%
CC(C)CCNC(=O)CN(CCCN1CCOCC1)C(=O)Cn1nnc(-c2ccc(F)cc2)n1	134%
COC(=O)c1c(NC(=O)CN2CCN(C(=O)c3ccco3)CC2)c2c(C)cccc2n1C	98%
COC(=O)[C@@H](NC(=O)NC1CCCc2ccccc21)C(C)C (stereo partly specified)	-9%
CC(C)C(NS(=O)(=O)c1ccc2c(c1)oc(=O)n2C)C(=O)N1CCN(c2ccccc2F)CC1 (stereo unspecified)	4µM*[single pt active]
CCOC(=O)N1CCC(NC(=O)C2CCN(S(=O)(=O)N3CCC(C)CC3)CC2)CC1	43%
O=C(Cn1nnc2ccccc21)NC1CCCCC1	-11%
O=C(NCC1CC1)[C@H]1C[C@@H]1[C@H](NP(=O)(c1ccccc1)c1ccccc1)c1ccccc1	97%
COc1ccc(CCNC(=O)c2c[nH]c3ccccc3c2=O)cc1OC	20%
O=C(COc1cc(Cl)c(Cl)cc1Cl)NCCN1CCOCC1	-18%
CCOC(=O)C1CCCCN1Cc1ccccc1C(F)(F)F (stereo unspecified)	37%
c1csc(CNc2cc(-c3ccoc3)ncn2)c1	-4%
NC(=O)c1ccccc1[N+](=O)[O-]	-10%
COC(=O)c1[nH]c(=O)c2ccccc2c1OCc1ccccc1	39%
Oc1ccc(COCc2ccccc2)c2cccnc12	-14%
COc1cccc(Nc2ncc3ncc(=O)n(CCC#N)c3n2)c1	-7%
CC1(C)CC(C(=O)Nc2nccs2)CCO1 (stereo unspecified)	-4%
CCN1C(=O)/C(=C2/C=CC=CN2C)SC1=S	-2%
CCOCCCNC(=O)C1CCN(S(=O)(=O)N2CC(C)CC(C)C2)CC1 (stereo unspecified)	56%
O=C(CSc1n[nH]c(-c2cccs2)n1)N1CCN(S(=O)(=O)c2ccccc2)CC1	0%
CC(Cl)Cl	-8%
COC(=O)CCC(=O)c1oc2ccc(Br)cc2c1N	2%
COc1cccc(NS(=O)(=O)c2nc3nc(C)cc(C)n3n2)c1	4µM*[single pt active]

Additional compounds:
SMILES	AmpC nodet inh
Cc1cc(C(=O)CC#N)c(C)n1-c1ccc(OC(F)F)cc1	2%
Cc1c(N=Cc2ccco2)c(=O)n(-c2ccccc2)n1C	8%
O=C(NCc1ccco1)c1cc(-c2ccccc2)c(N2CCOCC2)s1	14%
CN1C(=O)NC(c2ccccc2)C2=C1CN(Cc1ccco1)C2=O (stereo unspecified)	-12%
COC(=O)c1ccc(CSc2ncnc3c2oc2ccccc23)o1	57%
O=C(O)C1(NS(=O)(=O)c2ccc(F)c(Cl)c2)CCCCC1	22%
CN1CCN(C(=O)c2ccccc2NC(=O)Cc2ccccc2)CC1	-2%
C=CCn1c(SCC(=O)N2CCN(c3ccc(F)cc3)CC2)nnc1-c1ccco1	72%
CCc1cc2c(NCCC(=O)O)nc(C)nc2s1	-8%
CCOC(=O)C1CCCN(C(=O)Cn2cnc3c2c(=O)n(C)c(=O)n3C)C1 (stereo unspecified)	5%
CC(=O)C1=C(O)C(=O)N(CCc2c[nH]c3ccccc23)C1c1ccco1 (stereo unspecified)	-24%
COc1ccccc1-c1nc(C#N)c(N2CCN(c3ccccc3)CC2)o1	47%
O=S(=O)(Nc1ccc2c(c1)OCO2)c1cccs1	-18%
Cc1sc2nc(SCC(=O)NCCOCCO)n(C)c(=O)c2c1C	16%
COC(=O)CCCC[C@H]1SC[C@H]2NC(=O)N[C@]21O	2%
COC(=O)[C@H]1C[C@@H]1[C@H](NS(=O)(=O)c1ccccc1)c1ccccc1	5%
O=C(CP(=O)(CO)CO)c1ccc(Cl)cc1	8%
CC1=C(C(=O)OC2CCCCC2)C(c2cccnc2)n2ncnc2N1 (stereo unspecified)	34%
CC12COC3(C(=O)N4CCN(c5ccccn5)CC4)CC1CCC32C (stereo unspecified)	34%
CN(C)S(=O)(=O)c1ccc(C(=O)Oc2ccccc2)cc1	2%

Next section; the last 6 above are carried over.
SMILES	AmpC nodet inh
COC(=O)CCCC[C@H]1SC[C@H]2NC(=O)N[C@]21O	2%
COC(=O)[C@H]1C[C@@H]1[C@H](NS(=O)(=O)c1ccccc1)c1ccccc1	5%
O=C(CP(=O)(CO)CO)c1ccc(Cl)cc1	8%
CC1=C(C(=O)OC2CCCCC2)C(c2cccnc2)n2ncnc2N1 (stereo unspecified)	34%
CC12COC3(C(=O)N4CCN(c5ccccn5)CC4)CC1CCC32C (stereo unspecified)	34%
CN(C)S(=O)(=O)c1ccc(C(=O)Oc2ccccc2)cc1	2%
C=C(C)Cn1c(C2CC(=O)N(Cc3ccccc3)C2)nc2ccccc21 (stereo unspecified)	84%
CCc1c(C)sc(NC(=O)c2ccco2)c1C(=O)N1CCCCC1	25%
Nc1nc(Nc2ccccc2)nc2c1ncn2[C@@H]1O[C@@H](CO)[C@H](O)[C@@H]1O	-10%
CCc1nnc(NC(=O)CSc2nnc(CSc3nc(C)cc(C)n3)n2CC)s1	20%
Cc1ccc(-c2nnn(CC(=O)NCC3COCCO3)n2)o1 (stereo unspecified)	-1%
Cc1cc(C)c2ccc(C)[n+]([O-])c2c1O	-9%
CCCCCCN1C(=O)C(O)=C(C(C)=O)C1c1ccc(Cl)cc1 (stereo unspecified)	-3%
CCCn1cc(S(=O)(=O)CC(=O)N2CCc3ccccc32)c2ccccc21	15%
O=C(c1ccccc1)c1ccc(CN2C(=O)c3ccccc3C2=O)o1	-1%
CCCn1c(NCc2ccc(C)o2)nc2ccccc21	-18%
O=c1[nH]c(SCc2ccc(F)cc2)nc2c1cnn2-c1ccc(F)cc1	-15%
Cc1nc(NC(=O)c2ccccc2)sc1-c1csc(NCc2ccco2)n1	13µM*
CCOC(=O)C1=C(C)NC(=O)NC1c1cc(C)sc1C (stereo unspecified)	0%
CN(C)C(=O)Cn1c(SCC(=O)N2CCCc3ccccc32)nc2ccccc21	30%
Cc1ccsc1-c1nc(CSCC(=O)NCc2ccc3c(c2)OCO3)c(C)o1	30%
O=C1CN(C(=O)COC(=O)Cc2ccsc2)c2ccccc2N1	-18%
CS(=O)(=O)c1ccc2nc(NC(=O)C3COc4ccccc4O3)sc2c1 (stereo unspecified)	-12%
O=C(NCCNC(=O)C1CC2CCC1C2)C1CC2CCC1C2 (stereo unspecified)	22%
COc1cc2ccccc2cc1C(=O)Nc1ccc(N2CCN(C)CC2)cc1	66%
N#Cc1ccc(CN2CC3(CCN(C(=O)c4ccco4)CC3)C2)cc1	4%
O=C(Cc1ccccc1)Nc1c2c(nn1-c1cccc(Cl)c1)CS(=O)(=O)C2	-7%
O=S(=O)(c1cccc(-c2nnc(-c3ccc(Br)cc3)o2)c1)N1CCCCCC1	-5%
c1ccc(-c2ccc(-c3ccc(C4=NCCN4)cc3)o2)cc1	-4%[5.75 µM]
O=c1c(CCc2ccccc2)nc2cnc(N3CCNCC3)nc2n1Cc1ccc(F)cc1	145%
CN(C)c1nc(Nc2ccccc2)nc(Oc2ccc(=O)[nH]n2)n1	8%
Cc1nc2c(cnn2-c2ccc(Cl)cc2)c(=O)n1-c1ccc2c(c1)OCCO2	24%
COc1ncnc2c1oc1nc(C(C)C)c3c(c12)CC(C)(C)OC3	93%
CC(=O)Nc1nc(=S)n(-c2ccccc2)[nH]1	-3%
CS(=O)(=O)Nc1nnc(Cc2ccccc2)s1	-2%
CN1CCN(c2ccc([N+](=O)[O-])c3[nH]o[n+](=O)c23)CC1	6%[5.75 µM]
Cc1cccc(Nc2nc(NC(C)C)nc(Oc3ccc(=O)n(C)n3)n2)c1	48%
CN1CCN(c2cc(-c3ccccc3C(F)(F)F)ncn2)CC1	2%
COc1ccccc1CCn1c(=O)c(-c2cccs2)nc2cncnc21	8%

From PubChem BioAssay
